rRNA inh HTS: inhibits bacterial ribosomal RNA function over humanized ribosomes | E. coli WT GFP vs humanized-ribosome RFP mutants, fluorescence, 24 h; hits give low values; DMSO median 0, no signal -100 | GFP signal change (wild-type ribosome), % (concentration not given with the values) | hit rate 1.6% among 350,000 | AID 720706;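 active = significant combined selectivity score with lowered wild-type GFP, culture density cut under 30%, mutant RFP and density less affected; inactive = any of these conditions unmet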; also: one replicate is shown; some compounds called inactive have numbers as strong as hits
AF4-AF9 inh: MLL-AF4/AF9 protein interaction inhibition. hit rate 0.47% among 350,000. inhibition, % at 10 µM. AID 651704. AlphaScreen, biotin-AF4 peptide binding to FLAG-AF9. P42568;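 active = every replicate reaching a set inhibition limit, whatever the replicate mean, cut at about 25% in these data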;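 also: 0% = plate neutral control median and 100% = total signal loss; the record names both 10 and 1 µM as test concentration; the first replicate is given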
Target sequence (P42568 whole entry, looked up): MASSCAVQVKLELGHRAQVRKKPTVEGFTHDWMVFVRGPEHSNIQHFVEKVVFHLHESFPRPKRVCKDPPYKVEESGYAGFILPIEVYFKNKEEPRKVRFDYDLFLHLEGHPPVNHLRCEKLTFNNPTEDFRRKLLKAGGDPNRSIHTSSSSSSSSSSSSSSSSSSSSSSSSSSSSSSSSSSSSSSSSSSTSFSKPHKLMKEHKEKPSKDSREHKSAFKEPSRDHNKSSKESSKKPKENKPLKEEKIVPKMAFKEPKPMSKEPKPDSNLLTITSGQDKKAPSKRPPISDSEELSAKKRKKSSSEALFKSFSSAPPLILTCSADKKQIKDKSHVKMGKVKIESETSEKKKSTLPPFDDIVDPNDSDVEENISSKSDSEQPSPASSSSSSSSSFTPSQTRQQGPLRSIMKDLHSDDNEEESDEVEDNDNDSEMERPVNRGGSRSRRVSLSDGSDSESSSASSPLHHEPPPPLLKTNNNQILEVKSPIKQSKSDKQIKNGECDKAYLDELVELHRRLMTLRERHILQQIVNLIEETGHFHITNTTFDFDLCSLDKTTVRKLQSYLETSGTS
Beta cell apopt: beta cell apoptosis inhibition; INS-1E cytokine-induced death, ATP luminescence, 48 h; percent of positive-control rescue, neutral wells zero; protection from apoptosis, % (no concentration beside the values); hit rate 0.8% among 300,000;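 active = all replicates at 75% or more, or half of them and the mean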;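 also: 0% = cytokine-treated negative control wells and 100% = positive control rescue; higher means more ATP so stronger rescue from cytokine killing; wells of about 40 µL received 100 nL stock; the first replicate is given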
Bfl-1 A1 inh: inhibitors of the anti-apoptotic protein A1, read as caspase activation; MEF A1-2A-BIM cells, Caspase-Glo 3/7 luminescence, 3 h; percent of clofoctol response, vehicle zero; caspase activation, % (test concentration not listed); hit rate 0.066% among 330,000; AID 2462;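 active = over half of replicate activation scores above 10%, or exactly half above 10 with the replicate mean above 10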;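 also: wells of about 30 µL received 50 nL stock; many hits fall short of the cut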
FGF22 binding: binders of recombinant human FGF22 by thermal shift; calls only at 9.99 µM; Q9HCT0; SYPRO orange fluorescence; percent of sucrose octasulfate shift, DMSO zero; hit rate 1.5% among 340,000;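 active = melting point raised past a set limit in the mean and every replicate; three in four hits are not shown here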
Target sequence (Q9HCT0 whole entry, looked up): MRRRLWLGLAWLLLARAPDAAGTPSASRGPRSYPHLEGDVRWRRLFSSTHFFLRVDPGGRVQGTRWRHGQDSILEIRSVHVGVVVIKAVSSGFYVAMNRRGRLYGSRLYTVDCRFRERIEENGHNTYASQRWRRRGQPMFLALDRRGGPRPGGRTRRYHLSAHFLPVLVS
T cruzi repl: blocks replication of Trypanosoma cruzi | T. cruzi beta-gal in NIH3T3, luminescence, 90 h | hit rate 1.4% among 300,000 | inhibition, % (no concentration beside the values);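 active = mean inhibition across valid replicates above about 55%, limit read from the data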;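 also: signal also drops with host cell toxicity which is not excluded here; 0% = plate median of DMSO wells and 100% = zero luminescence signal; higher percent means less beta-gal luminescence so fewer parasites; stock transfer was 50 nL into about 50 µL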
Ecoli growth: E. coli growth inhibition; Escherichia coli growth, OD600, 23 h; hits give low values; OD600 absorbance (no concentration beside the values); hit rate 0.21% among 330,000; AID 1053175;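 active = OD600 absorbance below the run mean of sample wells minus 3.6 SD, in any replicate, cut at about 0.56 in these data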;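 also: stock transfer was 300 nL into about 60 µL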
UCH37 DUB inh: inhibitors of human deubiquitinating enzyme UCH37; Q9Y5K5; purified proteasome/UCH37, Ub-AMC cleavage fluorescence; inhibition, % (test concentration not listed); hit rate 0.33% among 330,000;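 active = mean of two replicates above 20%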;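 also: 0% = compound-free wells with enzyme and 100% = wells lacking proteasome; stock transfer was 100 nL into about 20 µL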
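system = Proteasome-associated human UCH37 deubiquitinase | amount = 0.15 nM proteasome as dispensed | medium = pH 7.4 Tris-HCl (50 mM) with ovalbumin, ATP-MgCl2, DTT | incubation = 30 min preincubation with enzyme, 25 min cleavage at room temperature | detection = AMC fluorescence 355/460 nm | read-out basis = percent inhibition | controls = no-proteasome and no-compound wells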
rRNA inh HTS OD600: further read-out of rRNA inh HTS, marked with its call; OD600 change, %; measured here: OD600 growth;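 optical density of the mix in the first replicate; 0 = DMSO median and -100 = no signal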
rRNA inh HTS RFP: also measured in rRNA inh HTS; calls as there; RFP signal change, %; measured here: RFP humanized mutant strains;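 first replicate; 0 = DMSO median and -100 = no signal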
Numbers without * were called inactive; i = inactive; · = no result given; & = joins results of further samples. Some of the compounds tested; rates above refer to the full screens.

compound,rRNA inh HTS,rRNA inh HTS OD600,rRNA inh HTS RFP,AF4-AF9 inh,Beta cell apopt,Bfl-1 A1 inh,FGF22 binding,T cruzi repl,Ecoli growth,UCH37 DUB inh
O=C(CSc1cn(Cc2ccccc2)c2ccccc12)NCc1ccc(F)cc1,1,7,-1.6,2.6,5,0.2,i,12,0.77,3.2
C[n+]1cccc(C(=O)NNC(=O)C23CC4CC(CC(C4)C2)C3)c1,7,18,1.1,-2.7,1,0.1,i,-7,0.69,7.4
COc1ccc(-c2csc(NC(=O)c3ccccc3F)n2)cc1,-10,-12,-2.4,-7.4,1,0.3,i,-8,0.68,-24
Cc1cccc(Nc2nnc(SCC(=O)c3c(N)n(C4CC4)c(=O)[nH]c3=O)s2)c1C,0,8,1.1,-2.8,5,-0.6,i,·,0.69,4.3
CC1CCCN(C(=O)C2CCN(CC3CC=CCC3)CC2)C1 (stereo not given),·,·,·,·,2,0.5,·,-3,0.75,1.5
CCOc1cc(C2NC(=O)NC(c3ccccc3)=C2C(=O)c2ccccc2)c(Br)cc1OCC(=O)O (stereo not given),3,-3,0.6,-2.2,-6,-1.1,i,-3,0.7,12
CCOC(=O)N1CCN(C(=O)C2CCCCC2)CC1,·,·,·,·,-2,0.2,·,20,0.73,-0.2
COc1cccc(NC(=O)c2c([N+](=O)[O-])cnn2C)c1,17,15,-0.3,4.6,-2,-0.3,i,6,0.7,5.5
COCCn1c(CN2CCC(Cc3ccccc3)CC2)nc2c1c(=O)n(C)c(=O)n2C,·,·,·,·,39,0.3,·,·,0.68,1.0
CCCCOc1ccc(C(=O)NCC(=O)N2CCN(C(=O)c3ccco3)CC2)cc1,-4,-1,2.1,0.5,·,1.0,i,-8,0.62,2.6
O=C(COC(=O)CNC(=O)c1ccccc1F)Nc1ccc2c(c1)OCO2,9,8,-1.5,-0.9,-8,1.0,i,·,0.69,-2.3
CCOCc1nnc(NC(=O)COc2ccc3c(c2)OCO3)s1,2,1,-2.7,3.5,0,-0.3,i,0,0.69,2.1
O=C(NNC(=O)c1ccncc1)Nc1ccc(Cl)cc1,-15,-10,0.6,-3.2,·,·,i,·,0.67,1.1
COc1ccc(C2=CC(=O)CCC2)cc1,·,·,·,·,-6,-6.2,·,-2,0.66,1.0
CC1(C)C(N(O)C(=O)Nc2ccccc2)N(c2cccc(Cl)c2)C(=O)N1O (stereo not given),·,·,·,·,·,0.7,·,-6,0.8,2.8
FC(F)(F)c1ccc(Oc2ccc3ccccc3c2Br)nc1,-6,-1,1.0,-2.1,1,-0.7,i,-9,0.68,-0.8
CCN(CC)C(=O)Cc1c(O)c2ccccc2[nH]c1=O,8,8,-4.5,-1.7,11,0.6,i,-5,0.72,-0.3
CC(C(=O)NCCSCc1cccc(Cl)c1)N(c1ccccc1)S(C)(=O)=O (stereo not given),-10,-22,1.3,-0.8,1,-0.1,i,-12,0.68,2.9
CN1CCC(=NNC(=O)C(=O)NCc2ccccc2)CC1,10,-3,0.0,-11,-1,-0.5,i,-1,0.68,3.0
OC[C@H]1OC(O)[C@@H](O)[C@@H](O)[C@@H]1O (stereo not given in full),·,·,·,3.3,-1,0.3,i,-15,·,0.4
O=C(NCc1nc2ccccc2[nH]1)C1=C[C@H](C2CCCCC2)C[C@H](OCc2ccc(CO)cc2)O1,16,-5,-8.2,0.8&0.4,3,0.1,i,38,·,5.9
COc1cccc(C2CC(c3ccc(Br)cc3)=NN2C(=O)c2ccncc2)c1OC (stereo not given),-35*,-27*,-2.3*,19,-1,1.7,i,33,0.69,-1.9
NC(=O)COC(=O)c1ccc(Cl)c(S(=O)(=O)N2CCCCCC2)c1,-11,-12,-1.8,0.4,-6,0.7,i,3,0.69,6.1
C=CCn1c(SCC(=O)NC(=O)NC2CCCC2)nnc1C1CCCCC1,·,·,·,·,1,-0.2,·,-3,0.72,1.5
CC(C)Cc1nnc(NC(=O)CCC(=O)N2CCN(c3ccccc3F)CC2)s1,5,7,0.1,-5.5,-6,-0.6,i,4,0.67,4.0
CCCS(=O)(=O)c1c(S(=O)(=O)CCC)c2ccc(C(N)=O)cn2c1C(=O)c1ccc(F)cc1,-3,-2,-1.9,1.6,6,0.3,i,-17,0.67,4.8
Cc1cc(=O)oc2c(C)c(OCC(=O)NCCc3ccc(S(N)(=O)=O)cc3)ccc12,-5,9,0.5,-0.3,2,-1.6,i,-3,0.73,-8.1
Cc1noc(C)c1C(=O)Nc1ccc(F)cc1F,·,·,·,·,-1,0.0,·,8,0.74,1.7
N#CC1(NC(=O)CN2c3cccc4cccc(c34)S2(=O)=O)CCCCC1,-4,-2,1.0,7.4,-1,1.3,i,8,0.68,-25
CC(C)CNC(=S)NC(=O)c1ccc(Cl)cc1,·,·,·,·,4,0.4,·,1,0.69,1.7
CC1=C(C(=O)Nc2ccccc2)C(c2ccc(C(C)C)cc2)N2C(=O)CSC2=N1 (stereo not given),14,8,-1.2,·,-4,0.0,·,-9,0.68,-3.3
Cc1cc(C(=O)CN2C(=O)c3cccc(N)c3C2=O)c(C)n1Cc1cccs1,·,·,·,·,-4,0.3,·,16,0.76,-107
O=C(CCc1nc2ccccc2c(=O)[nH]1)Nc1ccc(F)cc1,10,20,-7.4,0.1,-8,-0.4,i,-7,0.72,1.9
Brc1cccc(-c2nnc3sc(CN4CCC5(CC4)OCCO5)cn23)c1,2,6,-6.7,3.9,-5,-1.6,i,4,0.78,2.7
CCOc1ccc(S(=O)(=O)N2CCC(C(=O)NCc3ccccc3CN3CCCC3)CC2)cc1,17,6,-0.4,2.5,0,1.2,i,·,0.68,4.2
Cc1nn(CC(=O)NC2C(=O)N3C(C(=O)O)=C(CSc4nnnn4C)CSC23)cc1Br (stereo not given),16,19,2.7,3.8,1,0.2,i,-4,0.46*,0.8
CC(C)Cn1c(=O)c2c(nc3n2CCCN3CCc2ccccc2)n(C)c1=O,·,·,·,·,11,-0.1,·,20,0.68,4.4
O=C(Nc1nnc(C2=COCCO2)o1)c1cccc(F)c1,-64,-79,-22,1.0,6,-0.3,i,0,0.61,0.8
Cc1cccc(N2CN(Cc3ccco3)CNC2=S)c1C,·,·,·,·,-12,1.3,·,-22,0.66,1.0
CC1CN(C(=O)COC(=O)/C=C/c2ccc(C(F)(F)F)cc2)CC(C)O1 (stereo not given),7,10,-2.7,-4.2,-1,0.4,i,·,0.65,3.5
Cc1ccc(-c2noc(C3CCCN(C(=O)c4cccc(F)c4)C3)n2)cc1 (stereo not given),-26,-49,5.7,-1.0,-1,0.1,i,6,0.7,2.3
CC(C)(C)NC(=O)c1nc2nc(-c3ccccc3)cc(C(F)(F)F)n2n1,·,·,·,·,7,0.0,·,20,0.68,-140
C=CCOc1ccc(C=Nc2ccc(Cl)cc2)c(O)c1,·,·,·,·,-8,0.3,·,-1,0.74,2.9
O=c1cc(-c2ccccc2)[nH]n1-c1nc2ccccc2[nH]1,·,·,·,·,34,-9.6,·,-17,0.64,-0.5
CCOc1ccc(Nc2nc3c(c(=O)[nH]2)CCC3)cc1,·,·,·,·,3,-0.3,·,-11,0.68,3.5
CCCCN(C)CCCNC(=O)c1cn(C)c2ccc(S(=O)(=O)N(C)C3CCCCC3)cc2c1=O,-4,-6,4.6,-2.0,0,-0.3,i,36,0.72,4.6
CCCNC(=O)CN1C(=O)NC(c2ccccc2)(c2ccccc2)C1=O,5,4,-0.4,1.1,3,1.3,i,-11,0.67,1.4
Cc1ccc(C)c(NC(=S)NCc2ccc3[nH]c4c(c3c2)CCCC4)c1,2,-12,-12,-6.4,42,·,i,31,0.69,1.3
N=C1C(=O)OCC1c1ccccc1NC(=O)CN1CCOCC1 (stereo not given),·,·,·,·,-7,0.3,·,-8,0.64,5.0
Cc1cccc(OCc2nc(C#N)c(NCc3ccc4c(c3)OCO4)o2)c1,·,·,·,·,-5,1.1,·,42,0.72,5.0

(next part)
compound,rRNA inh HTS,rRNA inh HTS OD600,rRNA inh HTS RFP,AF4-AF9 inh,Beta cell apopt,Bfl-1 A1 inh,FGF22 binding,T cruzi repl,Ecoli growth,UCH37 DUB inh
Cc1ccc(C)c(-n2nnnc2SCC(=O)Nc2c(C)n(C)n(-c3ccccc3)c2=O)c1,·,·,·,·,0,0.1,·,-1,0.69,-1.0
O=[N+]([O-])c1ccccc1S(=O)(=O)NCCSc1ccccc1,-35,-29,-6.2,2.9,-2,-0.1,i,-3,0.65,0.4
CCCC(=O)N(Cc1cc(=O)[nH]c2ccccc12)c1ccccc1C,2,-2,2.6,-1.7,2,0.7,i,1,0.64,0.5
CCOc1ccc(NC(=S)N(CCOC)C2CCN(C(C)C)CC2)cc1,8,8,-1.1,0.5,-2,0.0,i,-18,0.68,-1.7
O=C(CNC1=NCCC1)c1ccc2c(c1)OCCO2,·,·,·,·,-2,-0.4,·,0,0.75,0.2
COc1cc(C)cc(C(=O)C=Cc2ccccc2)c1O,-52*,-60*,-16*,-0.1,·,·,i,·,0.67,-1.8
O=C(N/N=C/c1ccco1)c1cc(-c2ccc(Cl)s2)[nH]n1,-26*,-9.9*,2.0*,-2.2,0,-0.1,i,-18,·,·
O=C(Cc1csc(Nc2nc(=S)[nH]c3ccccc23)n1)NCc1ccc(Cl)cc1,·,·,·,-0.5,6,0.7,i,13,0.66,-48
COc1cc(C(=O)N[C@H](C(=O)Nc2nnc(C3CC3)s2)C(C)C)cc(OC)c1OC,-2,-4,-0.8,-6.9,-7,-0.6,i,-4,0.66,5.2
Cc1occc1C(=O)N1CCCC(Nc2ccc(F)c(F)c2)C1 (stereo not given),5,6,0.3,0.4,-4,0.4,i,12,0.69,2.8
CCC(=O)N1CC2(CC(c3cccc([N+](=O)[O-])c3)=NO2)C[C@H]1C(=O)NCC(N)=O (stereo not given in full),11,12,-12,-5.5,-3,0.2,i,-32,·,5.7
C=CCn1c(SCc2ccc(C#N)cc2)nnc1-c1ccccc1,·,·,·,·,-3,0.1,·,-12,0.75,-1.2
Cc1c(C)n(CCCN(C)C)c2ncnc(NC3CCCCC3)c12,1,5,-1.6,-2.6,-4,0.3,i,56*,0.64,2.8
COc1ccc(C(O)(C(=O)NNc2ccc(C)cc2)c2cccs2)cc1 (stereo not given),·,·,·,·,-6,-0.7,·,-30,0.71,2.0
Cc1nnc2sc(-c3ccc(N(C)C)cc3)nn2c1=O,-4,0,-1.5,3.3,·,·,i,5,0.67,-10
O=C(NNc1nc2ccccc2s1)C1CC1,·,·,·,·,-6,0.6,·,-17,0.68,2.2
C=CCc1ccc(OCCCCOc2ccc(C(=O)O)cc2)c(OC)c1,7,5,-1.9,-0.3,·,1.1,i,6,0.65,3.9
